Assay outcomes from PubChem.
NS1 function inh = inhibitors of influenza NS1 protein function; S. cerevisiae slowed by influenza A NS1, growth recovery by OD600; Potency, µM (doses to about 46.1 µM), inactives show top-dose activity, positive = more growth; 270,000 tested, 0.4% active; AID 2326; note: actives are rising curves; nearly all actives have a fitted effect of over 50% in size
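Recovery from NS1-induced slow growth read by OD600 in budding yeast switched to galactose assay medium (pH 6.0, -URA) at 1:100 dilution. Compound 23 nl per well; the matching strain lacking NS1 serves as control.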
2A StopGo = lowers the luciferase signal of an FMDV 2A StopGo reporter; human cells with a luciferase reporter of 2A StopGo recoding; control for the full effect not named in the record; Potency, µM (series often up to 57.9 µM), for the others: at the highest dose signal change, negative = less light; 410,000 tested, 1.2% active; active = well fitted falling curve with a large enough effect; inconclusive = small, poorly fitted or top-dose-only effect; inactive = no such curve, though single readings can be large or run the other way; tested in HEK293T cells; note: % is set by controls: 0 for no effect and ±100 for the full control effect; nearly all actives have a fitted effect of over 45% in size; luciferase light after 4 h
Cruzain inh noDet = inhibitors of Trypanosoma cruzi cruzain without detergent; P25779; purified cruzain, Z-FR-AMC fluorescence, no detergent; Potency, µM, for the others: max response, negative = inhibition, usual class: inhibitors; 200,000 tested, 2.3% active; AID 1476; active = well fitted curve in the direction sought with a large enough effect; inconclusive = small, poorly fitted or top-dose-only effect, or another doubt; inactive = no such curve, though single readings can be large; an effect the other way counts as inactive or inconclusive;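 note: plate controls were enzyme without inhibitor for no effect and buffer without enzyme for full effect; nearly all actives have a fitted effect of over 40% in size; top concentration of the series not given in the record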
Target sequence (P25779 123-467 limits assumed): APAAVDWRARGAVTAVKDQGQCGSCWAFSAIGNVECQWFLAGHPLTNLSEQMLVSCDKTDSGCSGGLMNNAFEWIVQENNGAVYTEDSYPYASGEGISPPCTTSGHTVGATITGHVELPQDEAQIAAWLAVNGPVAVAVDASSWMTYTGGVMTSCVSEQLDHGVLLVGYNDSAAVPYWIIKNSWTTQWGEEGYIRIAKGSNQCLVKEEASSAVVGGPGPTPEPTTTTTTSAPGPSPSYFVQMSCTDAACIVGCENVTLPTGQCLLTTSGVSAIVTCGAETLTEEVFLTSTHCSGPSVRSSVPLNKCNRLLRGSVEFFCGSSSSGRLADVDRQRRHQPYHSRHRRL
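Detergent-free condition (0.00005% Triton X-100) in acetate buffer pH 5.5 with DTT. 1.5 nM enzyme and compound were pre-mixed 15 min, then 2 uM Z-FR-AMC substrate added; reaction progress from fluorescence change between first and third reads (60 s).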
Marburg entry inh = blocks Marburg virus binding to or entry into cells; Potency, µM (series often up to 37.8 µM), without a hit: at the top dose activity change, negative = inhibition, usual class: inhibitors; Marburg virus pseudotyped entry inhibition, cell reporter; control for the full effect not named in the record; about a third of the inactives were read at about 46 µM; 300,000 tested, 1.8% active; AID 540276; active = well fitted inhibition curve with a large enough effect; inconclusive = small, poorly fitted or top-dose-only effect, or effect the other way; inactive = flat fitted curve, though single readings scatter; tested in HEK293 cells; about a fifth of its hits are not listed in these tables; note: % is set by controls: 0 for no effect and ±100 for the full control effect; luciferase read-out
Cruzain Triton = blocks cruzain activity in presence of Triton detergent. AID 1478. Potency, µM, for inactives: max response, negative = inhibition, hits mostly inhibitors. purified cruzain, Z-FR-AMC fluorescence, 0.01% Triton. P25779. 200,000 tested, 0.43% active; active = well fitted curve in the direction sought with a large enough effect; inconclusive = small, poorly fitted or top-dose-only effect, or another doubt; inactive = no such curve, though single readings can be large; an effect the other way counts as inactive or inconclusive;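 note: plate controls were neutral wells for no effect and buffer without enzyme for full effect; nearly all actives have a fitted effect of over 40% in size; top concentration of the series not given in the record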
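Z-FR-AMC hydrolysis (2 uM substrate) by cruzain (1.5 nM) monitored kinetically at ex 360/em 450 nm after 15 min room-temperature compound exposure; 0.01% Triton X-100, pH 5.5, 5 mM DTT.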
RE007 growth inh = less growth of the S. pombe RE007 Vpr strain; 360,000 tested, 0.21% active; Potency, µM (top dose mostly 92.2 µM), for inactives: top-dose activity change, negative = less growth; S. pombe RE007 Vpr strain, BacTiter-Glo ATP luminescence, 24 h; control for the full effect not named in the record; active = well fitted falling curve with a large enough effect; inconclusive = small, poorly fitted or top-dose-only effect; inactive = no such curve, though single readings can be large or run the other way;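 note: % is set by controls: 0 for no effect and ±100 for the full control effect; nearly all actives have a fitted effect of over 50% in size; the assay follows cell death caused by Vpr and the record does not say whether a fall means rescue or toxicity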
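Fission yeast strain RE007, carrying one chromosomally integrated HIV-1 vpr copy, was seeded at OD 0.01 in PMG+AL medium with 23 nL pinned compound. After 24 h at 30 °C and 99% humidity, viability was read by BacTiter-Glo luminescence.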
SARS PLP yeast = inhibitors of SARS-CoV papain-like protease in yeast | 330,000 tested, 0.19% active | S. cerevisiae expressing SARS-CoV PLpro, growth rescue; control for the full effect not named in the record | Potency, µM (highest dose often 32.9 µM), for the others: at the top dose activity, positive = growth rescue | AID 485353; note: 0% is about no effect; nearly all actives have a fitted effect of over 55% in size; growth read by luminescence after 48 h
LASV entry inh = Lassa virus entry inhibition. Lassa virus pseudotype entry inhibition, cell reporter; control for the full effect not named in the record. Potency, µM (series often up to 37.9 µM), for the others: at the top dose activity change, negative = inhibition, most hits filed as inhibitors. 300,000 tested, 1.2% active; active means well fitted inhibition curve with a large enough effect; inconclusive means small, poorly fitted or top-dose-only effect, or effect the other way; inactive means flat fitted curve, though single readings scatter; tested in HEK293 cells; note: % is set by controls: 0 for no effect and ±100 for the full control effect; nearly all actives have a fitted effect of over 50% in size; luciferase read-out
Numbers without * were called inactive; ? = inconclusive; · = no result given; & = joins results of further samples; [ ] = remark or other dose. Unless noted, calls come from the whole dose curve; as a rule, active means well fitted rising curve with a large enough effect; inconclusive means small, poorly fitted or top-dose-only effect; inactive means no such curve, though single readings can be large or run the other way. Potency is the fitted concentration of half-maximal effect.

SMILES	NS1 function inh	2A StopGo	Cruzain inh noDet	Marburg entry inh	Cruzain Triton	RE007 growth inh	SARS PLP yeast	LASV entry inh
Cc1ccc2oc(C(=O)N3CCC(C(N)=O)(N4CCCCC4)CC3)c(C)c2c1	11%	1%	·	·	·	5%	1%	·
CN(C)CCN(CC1CCCN(Cc2ccccc2F)C1)C(=O)c1ccc(Cl)cc1 (configuration not stated)	2%	16%	·	8.9µM*	·	-10%	0%	?
CN(c1ccccc1)S(=O)(=O)c1ccc(NC(=O)c2ccc(-c3ccccc3)cc2)cc1	1%	?	25µM*	-20%	2.8%	5%	2%	-8%[14.3 µM]
Cc1ccc(/C=C2\C(=O)NC(=O)N2C)o1	-12%	-8%	·	6%[46.1 µM]	·	-1%	2%	?
CC(=O)c1cccc(NC(=O)C(NC(C)C)c2ccccc2)c1 (configuration not stated)	·	7%	·	4%[46.1 µM]	·	4%	-2%	4%
CC1=NN(C(=O)Cc2ccccc2)C(O)(c2cccnc2)C1 (configuration not stated)	4%	-13%	0%	-2%	12%	2%	6%	2%
CCOC(=O)CNC(=O)/C=C/c1ccc2c(c1)OCO2	·	38%[activator]	·	-13%[46.1 µM]	·	9%	0%	?
N#Cc1ccc(OCC(O)CN2CCN(CC(O)COc3ccc(C#N)cc3)CC2)cc1 (configuration not stated)	14%	?	·	?	·	6%	-1%	-23%
Cc1c(CC(=O)O)c(=O)oc2cc3c(cc12)CCC(C)(C)O3	1%	-2%	·	·	·	-3%	0%	·
CSc1ncccc1C(=O)OCc1cccc([N+](=O)[O-])c1	2%	12%	·	?	·	-5%	-3%	1%[46.1 µM]
COc1cccc(OCCc2c(C)n[nH]c2C)c1	2%	-6%	10%	-10%	-0.6%	-5%	-4%	-11%
O=c1[nH]c2ccccc2n2c(C(F)(F)F)nnc12	8%	-24%	·	-1%[46.1 µM]	·	-1%	1%	8%[46.1 µM]
COc1ccc(/C=C2\SC(=S)N(CC(=O)NC3C=CS(=O)(=O)C3)C2=O)cc1 (configuration not stated)	-1%	13%	·	·	·	-1%	8%	·
FC(F)(F)c1ccccc1-n1c(-c2ccco2)n[nH]c1=S	10%	14µM*	·	-8%[46.1 µM]	·	1%	-2%	-4%[46.1 µM]
C=CCSc1nnc(-c2cc3c(s2)-c2ccccc2CC3)o1	-22%	13%	12%	7%[46.1 µM]	-11%	-4%	-12%	-9%
CC(=O)N1CCN(c2ccc(NC(=O)c3ccc([N+](=O)[O-])cc3Cl)cc2)CC1	9%	-6%	·	?	·	3%	-3%	27%[46.1 µM]
O=[N+]([O-])c1ccc(-n2nncc2-c2ccc(Cl)cc2)cc1	-6%	-16%	0%	1%	-4.9%	-4%	-3%	6%
COc1ccc(-c2ccc(CCC(=O)O)n2CC(C)C)cc1	-4%	-7%	7%	-4%	0.0%	-2%	-8%	?
O=C(CCS(=O)(=O)c1ccccc1)Nc1cccc2c1C(=O)NC2=O	·	0%	·	-4%	·	-2%	1%	0%
O=C(COC(=O)Cc1ccc(-c2ccccc2)cc1)NCc1ccccc1	-16%	-6%	-12%	3%	-6.9%	-11%	15%	-9%
Cc1ccc(Nc2oc(C)nc2C#N)cc1	-10%	·	14%	0%	0.6%	0%	-2%	13%
O=C(c1ccc2nc(Cc3cccc(Cl)c3)oc2c1)N1CCC[C@H]1CO	-1%	-6%	·	·	·	-5%	4%	·
COc1ccc(C(=O)NNc2ncnc3c2cnn3-c2ccc(C)cc2C)cc1	·	5%	-3%	·	0.5%	·	·	1%[46.1 µM]
Cc1ccc(NC(=O)CSc2nncn2-c2ccccn2)cc1Cl	2%	41%[activator]	·	2%[46.1 µM]	·	-4%	-2%	11%[46.1 µM]
CN(c1ccccc1)c1cc(=O)[nH]c(=O)[nH]1	11%	-6%	-7%	9%	-1.2%	5%	4%	-1%
CC(=O)c1ccc(NC(=O)CCCSc2nc(-c3ccco3)cc(C(F)(F)F)n2)cc1	·	-28%	?	-20%[46.1 µM]	-9.9%	·	·	0%[46.1 µM]
CCOC(=O)CC1C(=O)NCCN1Cc1ccc(OC)c(OC)c1 (configuration not stated)	-1%	3%	·	-1%[46.1 µM]	·	-21%	0%	·
CCc1ccc2oc(-c3ccc(NC(=O)c4cc(OC)c(OC)c(OC)c4)cc3)nc2c1	·	?	5%	·	-2.0%	·	·	15%[46.1 µM]
COc1ccccc1CNC(=O)c1ccccc1N(C)S(C)(=O)=O	3%	-3%	2%	6%	-1.9%	-1%	2%	1%
CC(=O)Nc1ccc(C(=O)COC(=O)Cc2ccsc2)c(F)c1	·	37%[activator]	·	10%[46.1 µM]	·	6%	-1%	10%[46.1 µM]
CCOC(=O)C1CCCN(C(=O)c2ccc(OCC)cc2)C1 (configuration not stated)	-11%	16%	16%	16%	1.2%	6%	3%	0%
CCNc1nc(NCc2ccc(F)cc2)c2cnn(C)c2n1	·	?	-2%	·	-2.4%	·	·	-22%[46.1 µM]
COC(=O)c1cc2sc(C)cc2n1Cc1nc(-c2cccc(Br)c2)oc1C	·	23%	12%	-9%[46.1 µM]	-1.8%	·	·	·
CCN1C(=O)c2ccccc2Sc2ccc(NC(=O)N3CCN(c4cc(C)ccc4C)CC3)cc21	·	-24%	-6%	?	-2.7%	·	·	-4%[46.1 µM]
O=C(c1ccccc1F)N1CCC(c2nc3c(nnn3Cc3cccc(F)c3)c(=O)[nH]2)CC1	·	-22%	-6%	-2%[46.1 µM]	-0.1%	·	·	16%[46.1 µM]
CCOCCc1nnc(NC(=O)c2ccc(OC)c(OC)c2)s1	-13%	-15%	15%	-24%[46.1 µM]	1.9%	-4%	-1%	-7%
O=C(Cn1nnc(-c2ccncc2)n1)N1CCc2ccccc21	0%	·	-11%	3%	-0.7%	2%	3%	-25%
COc1ccc(CCNC(=O)c2ccccc2NS(=O)(=O)c2c(F)cccc2F)cc1	4%	15%	·	2%[46.1 µM]	·	-1%	1%	15%[46.1 µM]
Cc1ccc(CNC(=O)CN(C)S(=O)(=O)c2cccc3cccnc23)cc1	-6%	-13%	-6%	1%	4.6%	-5%	-5%	·
N#CC(C#N)=C1C=CC=CN1/C(=C\c1ccccc1)C(=O)c1cccs1	?	?	?	7%	-5.0%	-7%	-41%	5%
C=CCN(c1ccc(C(=O)Nc2ccc(C)c(C)c2)cc1)S(C)(=O)=O	-17%	?	-15%	?	-4.5%	5%	1%	4%
Cc1cc(C)cc(N(CCC#N)C(=O)COC(=O)CN2C(=O)NC(C)(C)C2=O)c1	·	-3%	·	-1%[46.1 µM]	·	-12%	-5%	1%
CC(NC(=O)c1ccccc1F)c1nnc(SCC(=O)NC2CCCC2)n1C (configuration not stated)	6%	-10%	·	-20%[46.1 µM]	·	13%	1%	8%[46.1 µM]
CC1(C)CC(NC(=O)CC2CCCCC2)CC(C)(C)N1	1%	0%	-7%	-4%	-1.0%	-2%	7%	5%
Nc1cc(S(=O)(=O)O)cc2ccc(S(=O)(=O)O)cc12	-3%	6%	6%	-4%[46.1 µM]	2.5%	14%	·	0%[46.1 µM]
O=C(NC(=S)NCCc1ccccn1)c1ccco1	-5%	20%	·	3%[46.1 µM]	·	80%	1%	22%[46.1 µM]
O=C(NCc1ccc2c(c1)OCO2)c1ccc(N2C(=O)C3CCCCC3C2=O)cc1 (configuration not stated)	-6%	-27%	-4%	?	-3.8%	1%	-1%	9%
Cc1cccc(-n2c(=O)c3c4c(sc3n3cnnc23)CCCC4)c1	·	-20%	-6%	1%[46.1 µM]	-0.9%	·	·	12%[46.1 µM]
Cc1ccc(C)c(S(=O)(=O)NC2CCSC2=O)c1 (configuration not stated)	·	51%[activator]	·	-4%[46.1 µM]	·	1%	-9%	10%
Cc1cc(N2CCN(C)CC2)nc2ccc(NC(=O)c3ccc(Br)o3)cc12	-1%	28%	-8%	-32%&-32%	-15%	14%	0%	11%
Cc1ccc(C)c(S(=O)(=O)N2CCN(C(=O)Cn3c(C(F)(F)F)nc4ccccc43)CC2)c1	-8%	-24%	13%	-10%	-4.1%	0%	3%	3%
CCOCC(=O)Nc1c(C(=O)Nc2ccc(OC)cc2OC)oc2ccccc12	4%	-14%	?	-10%	3.6%	-6%	-4%	?
Cc1ccccc1OCC(=O)OCC(=O)N1CCCc2ccccc21	·	1%	·	21%	·	10%	5%	12%
CC(=O)N(c1ccccc1Cl)S(=O)(=O)c1ccc(Cl)cc1	20%	0%	·	0%[46.1 µM]	·	-30%	-2%	21%
COc1ccc(NC(=O)CNC(c2ccccc2)c2ccccc2)cc1Cl	-50%	-15%	·	?	·	8%	-8%	-12%[46.1 µM]
Cc1cc2ccccc2n1CCNC(=O)c1ccccc1F	·	1%	-4%	-18%[46.1 µM]	-8.3%	·	·	-17%[46.1 µM]
Cc1ccc2c(c1)N(CC(=O)NC(C)CCc1ccccc1)C(=O)c1cccnc1O2 (configuration not stated)	3%	-21%	·	·	·	7%	-4%	·
CCN(CC)S(=O)(=O)c1ccc(O)c(C(=O)OCC(=O)Nc2cc(C)c(C)cc2[N+](=O)[O-])c1	·	-5%	·	?	·	23%	3%	?
COc1ccc(N2C(=O)/C(=C/c3ccc([N+](=O)[O-])cc3)C=C2c2ccccc2)cc1	17%	·	16µM*	-17%	-4.0%	-4%	2%	?
COC(=O)c1ccc(Cn2c(SCc3ccc(F)cc3)nc3ccncc32)cc1	·	-29%	-2%	6%[46.1 µM]	-7.0%	·	·	·
Cc1ccc(C)c(N2CCN(C(=O)CCCN3C(=S)NC(C)(C)CC3C)CC2)c1 (configuration not stated)	-12%	22µM*	?	?	-2.9%	-11%	?	?
Cc1nc(N)[nH]c(=O)c1CCCNS(=O)(=O)c1ccc([N+](=O)[O-])cc1	·	48%[activator]	·	-28%	·	-15%	·	-5%
Cc1ccc(S(=O)(=O)N/N=C\c2ccc3c(c2)OCO3)cc1	-25%	·	3%	0%	-5.9%	-23%	-4%	4%
